Assay outcomes deposited in PubChem by National Center for Advancing Translational Sciences (NCATS).
NS1 function inh – blocks influenza NS1 protein function | S. cerevisiae slowed by influenza A NS1, growth recovery by OD600 | Potency, µM (highest dose often 46.1 µM), inactives show at the top dose activity, positive = more growth | 270,000 tested, 0.4% active | AID 2326; also: actives are rising curves; nearly all actives have a fitted effect of over 50% in size
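Read-out: OD600 growth recovery of NS1-expressing budding yeast. Cells grown overnight at 30C in -URA glucose medium, washed, resuspended and diluted 1:100 in 2% galactose assay medium, pH 6.0. Same strain lacking NS1 served as positive control.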
Marburg entry inh – inhibitors of Marburg virus binding or cell entry. Marburg virus pseudotyped entry inhibition, cell reporter; control for the full effect not named in the record; about a third of the inactives were read at about 46 µM. Potency, µM (doses to about 37.8 µM), inactives show at the highest dose activity change, negative = inhibition, usual class: inhibitors. 300,000 tested, 1.8% active. AID 540276; active = well fitted inhibition curve with a large enough effect; inconclusive = small, poorly fitted or top-dose-only effect, or effect the other way; inactive = flat fitted curve, though single readings scatter; tested in HEK293 cells; about a fifth of its hits are not listed in these tables; also: % is scaled to controls: 0 for no effect and ±100 for the full control effect; luciferase read-out
2A StopGo – lowers the luciferase signal of an FMDV 2A StopGo reporter. human cells with a luciferase reporter of 2A StopGo recoding; control for the full effect not named in the record. Potency, µM (highest dose often 57.9 µM), for the others: at the top dose signal change, negative = less light. 410,000 tested, 1.2% active; active = well fitted falling curve with a large enough effect; inconclusive = small, poorly fitted or top-dose-only effect; inactive = no such curve, though single readings can be large or run the other way; tested in HEK293T cells; also: % is scaled to controls: 0 for no effect and ±100 for the full control effect; nearly all actives have a fitted effect of over 45% in size; luciferase light after 4 h
Cruzain inh noDet – cruzain (T. cruzi) inhibition without detergent. Potency, µM, inactives show max response, negative = inhibition, actives largely listed as inhibitors. P25779. purified cruzain, Z-FR-AMC fluorescence, no detergent. 200,000 tested, 2.3% active; active = well fitted curve in the direction sought with a large enough effect; inconclusive = small, poorly fitted or top-dose-only effect, or another doubt; inactive = no such curve, though single readings can be large; an effect the other way counts as inactive or inconclusive;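 also: plate controls were enzyme without inhibitor for no effect and buffer without enzyme for full effect; nearly all actives have a fitted effect of over 40% in size; top concentration of the series not given in the record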
Target sequence (P25779 123-467 limits assumed): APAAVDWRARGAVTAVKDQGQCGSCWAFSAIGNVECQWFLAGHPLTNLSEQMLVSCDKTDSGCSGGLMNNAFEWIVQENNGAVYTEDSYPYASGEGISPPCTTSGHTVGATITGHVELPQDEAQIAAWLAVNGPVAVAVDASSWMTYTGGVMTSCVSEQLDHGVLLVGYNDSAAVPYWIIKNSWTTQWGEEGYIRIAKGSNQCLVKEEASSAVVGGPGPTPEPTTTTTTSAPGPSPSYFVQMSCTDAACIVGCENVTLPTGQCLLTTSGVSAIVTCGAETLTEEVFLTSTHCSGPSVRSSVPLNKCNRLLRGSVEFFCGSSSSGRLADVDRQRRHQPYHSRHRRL
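Detergent-free condition (0.00005% Triton X-100) in acetate buffer pH 5.5 with DTT. 1.5 nM enzyme and compound were pre-mixed 15 min, then 2 uM Z-FR-AMC substrate added; reaction progress from fluorescence change between first and third reads (60 s).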
SARS PLP yeast – inhibitors of SARS-CoV papain-like protease in yeast. Potency, µM (highest dose often 32.9 µM), for the others: at the highest dose activity, positive = growth rescue. 330,000 tested, 0.19% active. S. cerevisiae expressing SARS-CoV PLpro, growth rescue; control for the full effect not named in the record; also: 0% is about no effect; nearly all actives have a fitted effect of over 55% in size; growth read by luminescence after 48 h
RE007 growth inh – less growth of the S. pombe RE007 Vpr strain. S. pombe RE007 Vpr strain, BacTiter-Glo ATP luminescence, 24 h; control for the full effect not named in the record. Potency, µM (doses to about 92.2 µM), for the others: at the highest dose activity change, negative = less growth. 360,000 tested, 0.21% active. AID 651644; active = well fitted falling curve with a large enough effect; inconclusive = small, poorly fitted or top-dose-only effect; inactive = no such curve, though single readings can be large or run the other way;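 also: % is scaled to controls: 0 for no effect and ±100 for the full control effect; nearly all actives have a fitted effect of over 50% in size; the assay follows cell death caused by Vpr and the record does not say whether a fall means rescue or toxicity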
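Fission yeast strain RE007, carrying one chromosomally integrated HIV-1 vpr copy, was seeded at OD 0.01 in PMG+AL medium with 23 nL pinned compound. After 24 h at 30 °C and 99% humidity, viability was read by BacTiter-Glo luminescence.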
Cruzain Triton – inhibitors of Trypanosoma cruzi cruzain with detergent; P25779; purified cruzain, Z-FR-AMC fluorescence, 0.01% Triton; Potency, µM, without a hit: max response, negative = inhibition, most hits filed as inhibitors; 200,000 tested, 0.43% active; active = well fitted curve in the direction sought with a large enough effect; inconclusive = small, poorly fitted or top-dose-only effect, or another doubt; inactive = no such curve, though single readings can be large; an effect the other way counts as inactive or inconclusive;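 also: plate controls were neutral wells for no effect and buffer without enzyme for full effect; nearly all actives have a fitted effect of over 40% in size; top concentration of the series not given in the record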
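Detergent-containing arm of a paired screen for aggregation-based inhibition: 0.01% Triton X-100 present. Cruzain at 1.5 nM cleaved 2 uM Z-FR-AMC at pH 5.5 with 5 mM DTT; AMC fluorescence gain over 60 s measured activity.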
Lassa entry inh – Lassa virus entry inhibition; Lassa virus pseudotype entry inhibition, cell reporter; control for the full effect not named in the record; 300,000 tested, 1.2% active; Potency, µM (top dose mostly 37.9 µM), without a hit: at the top dose activity change, negative = inhibition, most hits filed as inhibitors; active means well fitted inhibition curve with a large enough effect; inconclusive means small, poorly fitted or top-dose-only effect, or effect the other way; inactive means flat fitted curve, though single readings scatter; tested in HEK293 cells; also: % is scaled to controls: 0 for no effect and ±100 for the full control effect; nearly all actives have a fitted effect of over 50% in size; luciferase read-out
An asterisk follows results filed as active; ? = inconclusive; · = no result given; & = joins results of further samples; [ ] = dose if it differs, or a comment. Unless noted, calls follow the shape of the dose curve; as a rule, active means well fitted rising curve with a large enough effect; inconclusive means small, poorly fitted or top-dose-only effect; inactive means no such curve, though single readings can be large or run the other way. Potency is read from the fitted curve at half-maximal effect.

SMILES | NS1 function inh | Marburg entry inh | 2A StopGo | Cruzain inh noDet | SARS PLP yeast | RE007 growth inh | Cruzain Triton | Lassa entry inh
O=C(COC(=O)c1cccc(S(=O)(=O)N2CCN(c3ccc(F)cc3)CC2)c1)NCC1CCCO1 (configuration not stated) | · | 3% | -19% | · | 0% | 7% | · | -10%
CCC1CCCCN1C(=O)CSc1nc2c(cnn2-c2ccc(C)cc2)c(=O)[nH]1 (configuration not stated) | ? | · | -13% | -14% | -8% | 8% | -1.8% | ·
C1CNCCOCCNCCN1 | 7% | -4% | -20% | -1% | -4% | -4% | 3.4% | 12%
COc1ccc(CNC(=O)C(C#N)c2nc3ccccc3nc2N2CCCC2)cc1 (configuration not stated) | -2% | -20% | -7% | 1% | 6% | -11% | -0.1% | 10%
O=C(COC(=O)c1cc(-c2cccs2)nn1-c1ccccc1)Nc1ccc(F)c([N+](=O)[O-])c1 | ? | 2% | -11% | ? | 1% | -8% | 1.9% | 7%
COc1ccc(-n2nc(C(=O)NCC(=O)NCC3CCCO3)c3ccccc3c2=O)cc1 (configuration not stated) | 0% | 2%&-16% | 14% | -2% | 4% | -15% | -1.3% | -2%
O=C(CN1C(=O)NC2(CCCc3ccccc32)C1=O)Nc1cc(F)ccc1F (configuration not stated) | · | ? | -14% | · | 0% | 1% | · | 8%
COc1ccc(-c2nc(CSCC(=O)NCc3ccc4c(c3)OCO4)c(C)o2)cc1OC | -7% | ? | -25% | 7% | ? | -10% | -3.6% | -4%
Cc1cc(Br)ccc1NC(=O)C1CCCN(S(=O)(=O)c2cccc3nonc23)C1 (configuration not stated) | · | 0%[46.1 µM] | 7% | -13% | · | · | -2.0% | -21%[46.1 µM]
Cc1csc(NC(=O)CCS(=O)(=O)c2ccc(Br)cc2)n1 | -3% | -22%[46.1 µM] | -17% | 1% | -7% | -13% | 0.6% | 17%
O=C(c1cc2ccccc2oc1=O)N(Cc1ccccc1F)C1CCS(=O)(=O)C1 (configuration not stated) | 1% | · | 22% | · | 4% | 1% | · | ·
Cc1ccc2cc(C3CC(c4ccco4)=NN3S(C)(=O)=O)c(Cl)nc2c1 (configuration not stated) | -5% | -2%[46.1 µM] | 38%[activator] | · | 0% | -6% | · | -3%
Cc1ccc(C(=O)N(CCc2ccccc2)Cc2ccccc2)cc1S(=O)(=O)N1CCCCC1 | · | ? | -1% | · | 1% | -11% | · | ?
COc1ccc(N(Cc2ccccc2)S(=O)(=O)c2cc(C(=O)O)ccc2Cl)cc1 | 16% | 7%[46.1 µM] | -14% | · | 1% | 6% | · | 1%
COc1cccc(NC(=O)CCSc2ccc3ccccc3n2)c1 | -5% | -5% | 39%[activator] | 4% | -10% | 3% | -5.3% | -10%
Cc1ccc(NC(=O)Cn2c(=O)n(CCCCC(=O)NCCc3ccccc3)c(=O)c3ccccc32)c(C)c1 | · | -26%[46.1 µM] | 0% | -5% | · | · | -3.9% | ?
O=C1CCc2cc(S(=O)(=O)NCc3ccccc3)cc3c2N1CC3 | · | -2%&-2% | 18%&34% | -7% | 3% | 7% | 0.0% | -3%&3%[46.1 µM]
O=S(=O)(Nc1nc2c(s1)CCCC2)c1ccc(Br)cc1 | -2% | 0% | 62%[activator] | -7% | ? | -12% | -13% | 10%
CC1(CCBr)C(=O)N(c2ccccc2)c2ccccc21 (configuration not stated) | 17% | · | ? | · | 2% | -11% | · | ·
COC(=O)C1=C(C)N(CCc2ccc(OC)c(OC)c2)C(=O)/C1=C\c1ccc(O)cc1 | 0% | 8% | ? | ? | -14% | · | -6.7% | ?

The list goes on, starting with the last four of the part before.
SMILES | NS1 function inh | Marburg entry inh | 2A StopGo | Cruzain inh noDet | SARS PLP yeast | RE007 growth inh | Cruzain Triton | Lassa entry inh
O=C1CCc2cc(S(=O)(=O)NCc3ccccc3)cc3c2N1CC3 | · | -2%&-2% | 18%&34% | -7% | 3% | 7% | 0.0% | -3%&3%[46.1 µM]
O=S(=O)(Nc1nc2c(s1)CCCC2)c1ccc(Br)cc1 | -2% | 0% | 62%[activator] | -7% | ? | -12% | -13% | 10%
CC1(CCBr)C(=O)N(c2ccccc2)c2ccccc21 (configuration not stated) | 17% | · | ? | · | 2% | -11% | · | ·
COC(=O)C1=C(C)N(CCc2ccc(OC)c(OC)c2)C(=O)/C1=C\c1ccc(O)cc1 | 0% | 8% | ? | ? | -14% | · | -6.7% | ?
NC(=O)c1ccc(OCC(=O)N2CCNC2=O)cc1 | · | 30%[46.1 µM] | 20% | · | -2% | 5% | · | ?
NNC(=O)/C(=C\c1ccco1)NC(=O)c1ccco1 | 7% | · | 2% | · | 5% | 5% | · | ·
Cc1ccc(C(=O)COc2nc(C)nc3ccccc23)cc1 | 0% | 7%[46.1 µM] | 18% | · | 1% | 35% | · | -14%
COc1cc(NC(=O)C2COc3ccccc3O2)c(OC)cc1Cl (configuration not stated) | -12% | -24% | ? | -14% | -4% | -14% | -1.3% | -1%
CCC(=O)N/N=C(\C)CC(=O)Nc1ccc2c(c1)OCCO2 | ? | 3%[46.1 µM] | -12% | · | 1% | 5% | · | 17%
CC(=O)Nc1ccc(S(=O)(=O)NCC(=O)OCC(=O)NCc2ccco2)cc1 | · | 9% | 9% | · | 5% | 2% | · | -3%
O=C1CCC(C(=O)N2CCN(c3ccc(F)cc3)CC2)CN1CC1CCCCC1 (configuration not stated) | -7% | · | -2% | · | 1% | 2% | · | ·
NC(N)=NCCCc1cn(CC(=O)N2CCNCC2)nn1 | 2% | · | -3% | · | 1% | -16% | · | ·
COc1cccc(CNC(=O)Cn2c(=O)cc(C(F)(F)F)c3c(C)nn(C)c32)c1OC | · | · | -17% | ? | · | · | -1.1% | ?
COc1ccc(-c2nn3c(-c4ccccc4)nnc3c3ccccc23)cc1 | · | · | 2% | -2% | · | · | 0.0% | -14%[46.1 µM]
CC(C)(C)NC(=O)C12CC3CC(CC(Cl)(C3)C1)C2 | ? | ? | -21% | -2% | ? | -17% | 3.4% | -4%
C(=N\Nc1ccccc1)/c1ccc(N2CCOCC2)cc1 | -13% | -1% | · | -14% | -9% | 144% | -5.4% | -1%
CCOc1ccc(Cc2c(Cl)nc(N)nc2Cl)cc1 | 5% | -5% | 0% | -24% | 10% | 15% | 2.5% | 9%
CN1CCN(CCCNC(=O)CCc2nnc3n(Cc4ccccc4Cl)c(=O)c4ccccc4n23)CC1 | 11% | · | 3% | · | -3% | -23% | · | ·
CN(CCN1CCOCC1)C(=O)CC1C(=O)NCCN1Cc1ccccc1C(F)(F)F (configuration not stated) | -6% | · | 0% | · | 3% | -6% | · | ·
Cc1ccccc1-c1nnn(C/C(N)=N/O)n1 | 0% | · | -15% | · | 0% | -3% | · | ·
Cc1ccc(-c2nnn(CC(=O)N(Cc3cccs3)C(C(=O)NC(C)(C)C)c3ccc(C)o3)n2)o1 (configuration not stated) | 17% | 28%&28% | 8% | 8% | ? | 5% | -0.5% | -3%
COc1ccccc1NS(=O)(=O)c1cccc(C(=O)NNC(=O)c2ccc(O)c(Cl)c2)c1 | · | 1% | -9% | · | 2% | -5% | · | 0%
Cc1c(C(=O)OC2CCCCCC2)[nH]c2c1C(=O)CC(c1ccc(Cl)cc1)C2 (configuration not stated) | · | 1%[46.1 µM] | -6% | -3% | · | · | 4.4% | 2%[46.1 µM]
Cc1cc(N2CCOCC2)nc(C(C)C)n1 | · | ? | -4% | · | 1% | -8% | · | 4%
Cc1cc(Nc2ccc(N3CCC(C)CC3)cc2)n2ncnc2n1 | -11% | -1% | -26% | -5% | -2% | 9% | 3.3% | -3%
O=C(Cn1cc(SCc2ccccc2)c2ccccc21)N1CCCCC1 | · | · | 22% | -1% | · | · | -6.0% | -19%[46.1 µM]
COC(=O)c1cc(NC(=O)c2c(F)c(F)c(F)c(F)c2F)cc(C(=O)OC)c1 | -24% | ? | 0% | 17% | ? | 4% | -3.8% | ?
O=C(O)C1CCCCC1C(=O)NCc1cn2ccccc2n1 (configuration not stated) | 1% | · | -19% | -10% | -8% | 2% | 1.3% | ·
CON(C)c1nc(OCCNC(=O)OCc2ccc(Cl)cc2Cl)nc(N(C)C)n1 | -22% | -3%&5% | -13% | ? | 14% | 0% | 0.1% | -10%
Nc1c(C(=O)Nc2ccc(S(=O)(=O)N3CCCC3)cc2)sc2nc3ccc(OC(F)(F)F)cc3cc12 | 7% | 6.3µM* | -1% | -8% | 3% | -5% | -6.6% | ?
CSCC[C@H](NC(=O)COc1ccc(Cl)cc1)c1nc2ccccc2[nH]1 | -10% | 18%[46.1 µM] | -22% | 13µM* | 9% | -11% | 7.1µM* | -15%
Cc1cc2nc(C)n3c4ccccc4nc3n2n1 | -34% | 2% | -16% | ? | 16% | ? | 2.2% | -1%
CN(C)/C=N/C(=S)Nc1ccccc1 | 9% | 1%[46.1 µM] | 0% | · | 0% | -11% | · | 26%
C=CCSC1=N/C(=C\c2sccc2C)C(=O)S1 | -6% | 10% | 4% | 2% | -1% | -9% | -1.7% | -3%
CC1CCCN(C(=O)c2ccc(S(=O)(=O)Nc3ccccc3Cl)cc2)C1 (configuration not stated) | -10% | -9% | ? | · | 0% | -5% | · | -9%
COc1cccc(CN(C(=O)c2ccco2)C2CCS(=O)(=O)C2)c1 (configuration not stated) | 0% | · | 12% | · | 2% | 4% | · | ·
COc1cccc(CNC(=O)C2CCN(Cc3cc4ccccc4n3Cc3ccc(C)cc3)CC2)c1 | · | · | -27% | 8% | · | · | -6.3% | ?
OC(Cn1ccnc1)c1ccc(Cl)cc1Cl (configuration not stated) | -44% | 17% | -8% | -4% | -21% | 15% | 0.0% | 14%
